GIV-Gai inh – inhibitors of GIV peptide binding to Galpha-i3, primary screen, biochemical, fluorescence polarization, FITC-GIV GBA peptide, rat Galphai3; 90 min; active compounds read low; scaled: aluminum fluoride 0%, vehicle 100%; actives 0.42% (n = 210,000); Guanine nucleotide-binding protein G(i) subunit alpha-3 (Rattus norvegicus), P08753; percent of control (FP), % (no concentration beside the values);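 active = replicate mean at 85% of control or lower, very high polarization wells dropped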;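 note: wells of about 15 µL received 100 nL stock; the first replicate is given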
Target sequence (P08753 whole entry, looked up): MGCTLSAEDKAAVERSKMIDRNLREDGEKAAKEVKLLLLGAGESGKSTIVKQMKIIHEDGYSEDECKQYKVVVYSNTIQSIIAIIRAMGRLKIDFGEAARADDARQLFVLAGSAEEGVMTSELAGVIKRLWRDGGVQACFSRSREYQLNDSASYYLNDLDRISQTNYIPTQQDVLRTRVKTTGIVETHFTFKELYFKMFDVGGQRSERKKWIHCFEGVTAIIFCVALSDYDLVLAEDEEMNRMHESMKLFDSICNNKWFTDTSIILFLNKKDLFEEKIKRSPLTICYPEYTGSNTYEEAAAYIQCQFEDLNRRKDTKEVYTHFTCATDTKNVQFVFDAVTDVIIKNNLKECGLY
Sa growth 42C – S. aureus growth inhibition at 42 and 30 °C, primary screen, LtaS inhibitor project, RN4220, two temperatures | OD600, 20 h, 42 °C; active compounds read low | actives 0.53% (n = 170,000) | relative growth, % (test concentration not listed) | AID 720641, 2013;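 active = growth at 42 °C up to 50% and 20 or more points under that at 30 °C, or under 10% at both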;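 note: 300 nL library stock went into each well; scaled to the means of positive and negative controls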
HCMV UL50-53 inh – inhibitors of HCMV UL50-UL53 interaction, biochemical, HTRF | actives 0.15% (n = 190,000) | AID 1918969, 2023 | inhibition, % (no concentration beside the values) | HCMV UL50-UL53 nuclear egress complex (human cytomegalovirus) | normalized percent inhibition;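 active = both replicates at 50% or more, plus weaker picks with an unusually low signal ratio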;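 note: stock transfer was 100 nL into about 20 µL; 0% = negative control wells and 100% = wells with untagged competitor protein; inactives centre near -12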
Sa growth 42C second temp – recorded beside Sa growth 42C, whose call it bears; relative growth, %; measured here: growth at 30 °C;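 optical density after 20 h as mean of two plates; 100% = untreated growth and lower means inhibition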
Active calls of the source: *; / = no result given.

1: Cc1onc(-c2c(Cl)cccc2Cl)c1NC(=O)N1CCCC1=O
2: N#Cc1nc(-c2ccc(S(=O)(=O)N3CCCCC3)cc2)oc1N1CCc2ccccc2C1
3: CCOC(=O)c1sc(NC(=O)CC)nc1C
4: CN1C=C(C(F)(F)F)C=C/C1=C(/C#N)c1nnc2n1CCCCC2
5: O=C(Cc1ccccc1)Sc1ncn[nH]1
6: CCCCn1c(SC(CC)C(=O)Nc2ccc3c(c2)OCO3)nc2ccc(N3CCOCC3)cc2c1=O (stereo unspecified)
7: CC(C)C(=O)Nc1cc(-c2ccccc2)no1
8: c1ccc2c(c1)CCCN2Cc1cn2ccccc2n1
assay / entry,1,2,3,4,5,6,7,8
GIV-Gai inh,102,98,102,/,/,98,99,/
Sa growth 42C second temp,88,/,91,92,82,77,89,91
HCMV UL50-53 inh,-5,-36,/,-66,-1,2,-10,4
Sa growth 42C,98,/,94,99,66,81,76,105

9: COc1ccc(-c2nnc(SCc3ccc(C#N)cc3)n2CC(C)C)cc1
10: Fc1ccc(NCc2c[nH]c3ccccc23)cc1
11: CC(C)C1N=C2c3ccccc3N=C(SCC(=O)c3ccc(Br)cc3)N2C1=O (stereo unspecified)
12: CC(=O)N(c1ccccc1)C1CC(C)N(C(=O)c2cc([N+](=O)[O-])cc([N+](=O)[O-])c2)c2ccccc21 (stereo unspecified)
13: CN1C(=O)C(C)(C)Nc2ccccc21
14: CC1Cc2ccccc2N1Cc1ccc(-n2ccnc2)cc1 (stereo unspecified)
15: O=C(Nc1nc(-c2ccc3c(c2)OCO3)cs1)c1cc(=O)c2ccccc2o1
16: COc1ccccc1C(=O)Nc1ccc(S(=O)(=O)NC2=NCCCCC2)cc1
assay / entry,9,10,11,12,13,14,15,16
GIV-Gai inh,/,105,101,99,107,/,101,/
Sa growth 42C second temp,91,88,78,/,94,52,/,91
HCMV UL50-53 inh,27,-15,/,-33,-18,-22,-26,-26
Sa growth 42C,115,87,105,/,92,92,/,97

17: CCCn1cc(S(=O)(=O)c2cc(C)ccc2C)c(=O)c2cc(F)c(N3CCN(CC)CC3)cc21
18: CCOC(=O)c1cc2c(=O)n3ccccc3nc2n(CCOC)c1=NC(=O)c1c(-c2c(F)cccc2Cl)noc1C
19: O=C(NC1CC(=O)N(c2ccc(F)cc2)C1)c1cc2ccccc2o1 (stereo unspecified)
20: COc1ccc(C(=O)CSc2nnc(Cc3cccs3)n2C2CC2)cc1
21: CS(=O)(=O)N(Cc1ccccc1)Cc1nc2ccccc2c(=O)[nH]1
22: CCN(CC)c1ccc(NC(=O)CN2C(=O)c3cccnc3Oc3ccccc32)c(C)c1
23: CCOCCCNC(=O)Nc1c(C)nc2nc[nH]n2c1=O
24: COC(=O)c1cc2ccsc2n1CC(=O)NC1CCCCC1
assay / entry,17,18,19,20,21,22,23,24
GIV-Gai inh,105,112,99,/,91,106,103,102
Sa growth 42C second temp,88,107,98,61,90,103,/,/
HCMV UL50-53 inh,/,2,/,-5,4,/,-23,4
Sa growth 42C,84,99,110,83,105,91,/,/

25: O=C(Nc1nc2ccccc2n1CCOc1ccccc1Cl)c1ccc(F)cc1
26: Cc1ccc(C(=O)NCc2ccc3c(c2)cc(C)n3C)cc1
27: Cc1cc(C)c2c(C(C)(C)C)nn(-c3ccc(C(=O)O)cc3)c2n1
28: COc1ccc(NCc2csc(-c3ccccc3)n2)cc1Cl
29: CNS(=O)(=O)c1cc(C(=O)Nc2nnc(C3CC3)s2)ccc1Cl
30: Cc1cc2nc3s/c(=C\c4ccc(-c5cccc(F)c5)o4)c(=O)n3c2cc1C
31: O=C(CCn1cccc1)N1CCN(c2ccccc2)CC1
32: CC(=O)Nc1ccc(NC(=O)c2ccc3c(c2)N(Cc2cccc(Cl)c2)C(=O)c2ccccc2S3(=O)=O)cc1
assay / entry,25,26,27,28,29,30,31,32
GIV-Gai inh,97,100,115,/,/,108,101,113
Sa growth 42C second temp,/,80,64,94,90,94,90,88
HCMV UL50-53 inh,-7,/,1,-14,-4,6,-25,6
Sa growth 42C,/,112,81,79,105,97,110,102

Arranged by heavy-atom count (smallest number first): part of the list above
13: CN1C(=O)C(C)(C)Nc2ccccc21
31: O=C(CCn1cccc1)N1CCN(c2ccccc2)CC1
28: COc1ccc(NCc2csc(-c3ccccc3)n2)cc1Cl
29: CNS(=O)(=O)c1cc(C(=O)Nc2nnc(C3CC3)s2)ccc1Cl
21: CS(=O)(=O)N(Cc1ccccc1)Cc1nc2ccccc2c(=O)[nH]1
19: O=C(NC1CC(=O)N(c2ccc(F)cc2)C1)c1cc2ccccc2o1 (stereo unspecified)
20: COc1ccc(C(=O)CSc2nnc(Cc3cccs3)n2C2CC2)cc1
16: COc1ccccc1C(=O)Nc1ccc(S(=O)(=O)NC2=NCCCCC2)cc1
25: O=C(Nc1nc2ccccc2n1CCOc1ccccc1Cl)c1ccc(F)cc1
22: CCN(CC)c1ccc(NC(=O)CN2C(=O)c3cccnc3Oc3ccccc32)c(C)c1
assay / entry,13,31,28,29,21,19,20,16,25,22
GIV-Gai inh,107,101,/,/,91,99,/,/,97,106
Sa growth 42C second temp,94,90,94,90,90,98,61,91,/,103
HCMV UL50-53 inh,-18,-25,-14,-4,4,/,-5,-26,-7,/
Sa growth 42C,92,110,79,105,105,110,83,97,/,91

17: CCCn1cc(S(=O)(=O)c2cc(C)ccc2C)c(=O)c2cc(F)c(N3CCN(CC)CC3)cc21
32: CC(=O)Nc1ccc(NC(=O)c2ccc3c(c2)N(Cc2cccc(Cl)c2)C(=O)c2ccccc2S3(=O)=O)cc1
18: CCOC(=O)c1cc2c(=O)n3ccccc3nc2n(CCOC)c1=NC(=O)c1c(-c2c(F)cccc2Cl)noc1C
assay / entry,17,32,18
GIV-Gai inh,105,113,112
Sa growth 42C second temp,88,88,107
HCMV UL50-53 inh,/,6,2
Sa growth 42C,84,102,99

(list continues)
33: CC1=CCC(C(=O)Nc2nc3ccccc3s2)C(C(=O)O)C1 (stereo unspecified)
34: Cc1cc(N2CCN(C)CC2)ccc1NC(=O)c1ccc2c(c1)NC(=O)C(C)S2 (stereo unspecified)
35: CSc1ccc(CCNC(=O)c2ccc(-n3c(C)cc4c3CCC(C)C4)cc2)cc1 (stereo unspecified)
36: O=C(O)CCC(=O)N1N=C(c2c(-c3ccccc3)c3cc(Cl)ccc3[nH]c2=O)CC1c1ccc(F)cc1 (stereo unspecified)
37: O=C(Nc1sc2c(c1C(=O)NCc1ccco1)CCC2)c1ccc(F)cc1
38: CC(C)N(C(C)C)S(=O)(=O)c1ccc(N2CCC(C(N)=O)CC2)nc1
39: O=C(O)c1cc(=O)cc(C(=O)O)[nH]1
40: O=C1c2ccccc2C(=Cc2cccs2)c2ccccc21
assay / entry,33,34,35,36,37,38,39,40
GIV-Gai inh,97,/,112,104,/,/,100,104
Sa growth 42C second temp,94,96,90,/,88,83,/,52
HCMV UL50-53 inh,-14,-3,/,-26,-17,-21,-8,/
Sa growth 42C,91,130,84,/,121,110,/,73

41: O=C(CC12CC3CC(CC(Br)(C3)C1)C2)Nc1nncs1
42: CCOC(=O)N1CCc2c(sc(NC(=O)c3ccc(S(=O)(=O)N4CCOCC4)cc3)c2C(=O)N2CCOCC2)C1
43: COc1cccc(N2CCN(C(=O)c3cc4c(=O)n(Cc5ccco5)ccc4nc3C)CC2)c1
44: Cc1ccc(Cl)cc1N(C)C(=O)c1cc2c(C)nc3ccccc3c2o1
45: CCn1c(=O)c(C(=O)Nc2nccc(C)n2)c(O)c2ccccc21
46: O=S1(=O)CCC(NC2CCCCC2)C1 (stereo unspecified)
47: O=C(c1cc(-c2ccccc2)on1)N(Cc1ccccc1)C1CCS(=O)(=O)C1 (stereo unspecified)
48: O=C1Nc2ccccc2O/C1=C\c1ccc(C(=O)NC2CCCCC2)cc1
assay / entry,41,42,43,44,45,46,47,48
GIV-Gai inh,/,106,111,107,107,102,104,104
Sa growth 42C second temp,84,101,99,96,/,77,/,81
HCMV UL50-53 inh,-40,6,/,/,-3,-6,-14,/
Sa growth 42C,124,98,97,118,/,96,/,101

Exported with each value named: 3 of the compounds above
45) CCn1c(=O)c(C(=O)Nc2nccc(C)n2)c(O)c2ccccc21
  GIV-Gai inh = 107
  Sa growth 42C second temp = /
  HCMV UL50-53 inh = -3
  Sa growth 42C = /

43) COc1cccc(N2CCN(C(=O)c3cc4c(=O)n(Cc5ccco5)ccc4nc3C)CC2)c1
  GIV-Gai inh = 111
  Sa growth 42C second temp = 99
  HCMV UL50-53 inh = /
  Sa growth 42C = 97

42) CCOC(=O)N1CCc2c(sc(NC(=O)c3ccc(S(=O)(=O)N4CCOCC4)cc3)c2C(=O)N2CCOCC2)C1
  GIV-Gai inh = 106
  Sa growth 42C second temp = 101
  HCMV UL50-53 inh = 6
  Sa growth 42C = 98

The results go on:
49: CCOC(=O)c1ccc(NC(=O)c2cnn3ccccc23)cc1
50: COc1ccc(CCNC(=O)CCCCn2c(=O)c3ccccc3n(Cc3ccccc3C)c2=O)cc1OC
51: Cc1nc2c(C(=O)NC(C)c3ccccc3)cnn2c(C)c1Cc1ccccc1 (stereo unspecified)
52: CCSc1nc(C)c(C)c(C)c1C#N
53: Cc1cc(C)n(C2=NCCN2C=C(C#N)C#N)n1
54: COc1cccc(C(=O)Nc2ccc3oc(-c4cccc(Br)c4)nc3c2)c1
55: CCOc1ccc(NC(=O)c2cc3sc(Cl)cc3n2CC)cc1
56: Brc1cccc(-c2n[nH]c(-c3ccccc3)n2)c1
assay / entry,49,50,51,52,53,54,55,56
GIV-Gai inh,105,108,97,/,110,102,106,103
Sa growth 42C second temp,87,99,55,94,97,/,87,92
HCMV UL50-53 inh,4,-9,/,-14,-24,-16,5,-1
Sa growth 42C,102,102,50,98,96,/,100,98

57: Cc1ccc2c(c1)C(Cc1ccc(Br)cc1)C(=O)N2 (stereo unspecified)
58: CCn1nc(C)c(Br)c1-c1nc(CS(=O)(=O)c2ccc(F)cc2)no1
59: COc1cc(C(O)CO)ccc1O (stereo unspecified)
60: O=C(NC1=NCCS1)c1ccco1
61: CC(c1ccccc1)n1c(OC(=O)N(C)C)nnc1SCC(=O)c1ccc2c(c1)OCCO2 (stereo unspecified)
62: CCOc1ccc(N2CC(C(=O)Nc3ccccc3C(=O)N3CCOCC3)CC2=O)cc1 (stereo unspecified)
63: O=C(c1cncc(NS(=O)(=O)c2ccc(Cl)cc2)c1)N1CCc2ccccc21
64: CCN(CC)/C(=N/OCc1ccc(Cl)cc1Cl)c1nonc1N
assay / entry,57,58,59,60,61,62,63,64
GIV-Gai inh,103,108,101,106,102,102,107,92
Sa growth 42C second temp,/,89,/,89,75,91,81,118
HCMV UL50-53 inh,9,-39,-26,/,-26,-10,-1,14
Sa growth 42C,/,93,/,114,105,100,115,114

65: Cc1cccc(OCCSc2nc3ccc(NC(=O)COc4ccccc4F)cc3s2)c1
66: COc1ccc(-c2nc3cc(NC(=O)COc4ccccc4C)ccc3o2)cc1
67: COc1ccc(CNC(=O)c2nn(-c3ccccc3C)nc2CO)cc1
68: CCCC(=O)Nc1ccc2nc(SCc3ccc(C)cc3)sc2c1
69: CCc1ccc(NC(=O)C(CC)Sc2nc3nccnc3c(=O)n2CCc2ccccc2)cc1 (stereo unspecified)
70: OC1(C(F)(F)F)CC(/C=C/c2cccs2)=NN1 (stereo unspecified)
71: Cc1nc(S(=O)(=O)N2CCC(C(=O)NCc3ccc(Cl)cc3)CC2)cn1C
72: CC1CCN(c2nc3ccc(C(=O)NCc4cccc(Br)c4)cc3s2)CC1
assay / entry,65,66,67,68,69,70,71,72
GIV-Gai inh,96,100,99,105,106,/,103,96
Sa growth 42C second temp,97,78,85,89,88,51,/,/
HCMV UL50-53 inh,2,-25,-39,7,/,-14,6,-15
Sa growth 42C,104,101,93,93,87,93,/,/

73: COC(=O)c1ccc(Cl)cc1NC(=O)N1CCC(CN2CCOCC2)CC1
74: COc1ccc(CCCc2nnc(SCC(=O)Nc3cccc(F)c3C)o2)cc1
75: Cn1c(SCc2ccccc2)nnc1C1CCN(C(=O)NCc2ccccc2)CC1
76: C/C(=N/O)c1[nH]c(C)c(/C(C)=N\O)c1C
77: Cc1ccc(NC(=O)CN2C(=O)S/C(=C/c3ccc(C)o3)C2=O)cc1
78: Cc1cccc(NC(=O)Cn2nnc(C(=O)NCc3cccs3)c2N)c1
79: COc1ccc(NC(=O)/C(C#N)=C/c2ccc(C)o2)cc1
80: CCOc1ccc(OCCOC(=O)c2ccc(O)cc2)cc1
81: CCN(c1ccccc1)S(=O)(=O)c1cc2c(cc1C)n(C)c(=O)c(=O)n2C
82: Cn1c(SCC(=O)O)nc2ccccc21
83: FC(F)(F)c1ccc(-n2nnnc2-c2cnccc2C(F)(F)F)cc1
assay / entry,73,74,75,76,77,78,79,80,81,82,83
GIV-Gai inh,103,102,97,105,/,102,107,/,105,109,102
Sa growth 42C second temp,97,91,87,100,89,82,87,94,86,102,72
HCMV UL50-53 inh,12,-6,-3,-13,-6,-23,-85,-15,-17,-5,-7
Sa growth 42C,101,112,100,113,86,104,96,91,94,88,122

From PubChem BioAssay
